# AmpC inh no det – Promiscuous and Specific Inhibitors of AmpC Beta-Lactamase (assay without detergent); hit rate 1.8% among 71,000; AmpC nitrocefin hydrolysis, absorbance 480 nm, no detergent; potencies from a single point are estimates; Potency, µM (doses to about 28.7 µM), inactives show top-dose activity change, negative = inhibition; P00811; active = falling curve, for most hits resting on a single point; inconclusive = weak or doubtful change; inactive = flat or rising curve; further: % of control where 0% means no effect; a quarter of the inactives give rising signals
# Target sequence (P00811 whole entry, looked up): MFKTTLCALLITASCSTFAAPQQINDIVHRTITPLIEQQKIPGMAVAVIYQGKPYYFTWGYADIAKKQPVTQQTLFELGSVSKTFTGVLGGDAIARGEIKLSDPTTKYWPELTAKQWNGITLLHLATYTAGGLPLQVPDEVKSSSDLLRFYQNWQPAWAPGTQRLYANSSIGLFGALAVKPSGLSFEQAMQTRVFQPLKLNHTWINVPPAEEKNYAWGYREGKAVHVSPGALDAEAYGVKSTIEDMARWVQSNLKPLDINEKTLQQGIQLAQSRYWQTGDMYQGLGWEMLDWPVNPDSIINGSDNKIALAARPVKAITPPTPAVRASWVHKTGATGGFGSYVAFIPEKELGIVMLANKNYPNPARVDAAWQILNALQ
#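 Enzyme, pH 7.0 phosphate. Compound titrations were pre-incubated with AmpC for 15 min at room temperature before nitrocefin (stock 800 uM) addition; product formation was recorded at 480 nm every 20 s for 4 min.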
# * marks the source's active call; other numbers are inactive results; ! = repeats disagree; [ ] = another dose, or the depositor's remark. Potency means the concentration at half of the fitted maximal effect.
SMILES,AmpC inh no det
CCc1ccccc1NC(=O)COC(=O)C1CC(=O)N(c2ccc(F)cc2)C1 (centres undefined),12%
COc1cccc(Cn2c(=O)cnc3cnc(N(C)C)nc32)c1,73%
COCCNC(=O)COc1ccccc1Cl,2%
COc1ccc(C)cc1-n1nnnc1SCc1cn2ccsc2n1,-4%
Cc1nc2cnc(Nc3ccccc3)nc2n(C[C@H]2CCCO2)c1=O,16%
N#CC(C(=O)NC1CCCCC1)c1nc2ccccc2nc1N1CCN(c2ccc(F)cc2)CC1 (centres undefined),-7%
CCOC(=O)C1=C(c2ccccc2)N2CCS(=O)(=O)N=C2S1,-1%
CCN(CC)CCn1c(-c2ccccc2)nc2c(N3CCOCC3)nc(C)nc21,33%
COC(=O)c1ccc(CSc2ccccc2C)o1,-7%
COc1ccc(-c2ccc(CCC(=O)O)n2C(C)C)cc1,-2%
CCOC(=O)C1CCN(C(C)C(=O)c2c(C)[nH]c3cc(C)ccc23)CC1 (centres undefined),45%
Cc1cc(C)c(NC(=O)CS(=O)CC(=O)N2CCN(c3ccccc3)CC2)c(C)c1 (centres undefined),76%
CCOC(=O)c1[nH]c2ccc(F)cc2c1NC(=O)CN1CCc2cc(OC)c(OC)cc2C1,113%
Cc1cc(C)nc(N(C#N)CN2C(=O)c3ccccc3S2(=O)=O)n1,3%
O=C(CN1CCN(c2ccccc2)CC1)Nc1ccccc1C(F)(F)F,81%
Cc1ncoc1C(=O)Nc1cccc(Cl)c1,3%
O=C(O)C1CCNCC1,-5%
O=C(Nc1ccccn1)c1c(O)c2cccc3c2n(c1=O)CCC3,60%
C=CCN(CC=C)C(=O)C1CC(=O)N(c2ccc(Br)cc2)C1 (centres undefined),30%
CCOC(=O)C1CCN(C(=O)C2CCN(S(=O)(=O)c3cc(Cl)ccc3Cl)CC2)CC1,102%
CCOCCCNC(=O)CCCn1nc(C)n2c(cc3sccc32)c1=O,29%
CCN1C(=O)C2(C(C#N)=C(N)Oc3cc(C)oc(=O)c32)c2ccccc21 (centres undefined),2%
C=Cn1ccnc1P(=S)(c1ccc2c(c1)c1ccccc1n2CC)c1nccn1C=C,94%
CC1CCN(S(=O)(=O)c2cccc(C(N)=O)c2)CC1,6%
CNC(=O)CSc1nnc(-c2cccnc2)n1CCc1ccccc1,0%
CC1Cc2nc(SCC(=O)N3CCCC3)n(C)c(=O)c2S1 (centres undefined),2%
CCCSc1nnc(-c2ccccc2NC(=O)CC)c(=O)[nH]1,-10%
O=C(CCS(=O)(=O)c1cccs1)N1CCCC1,2%
CC(=O)C(C)Oc1ccc2c3c(c(=O)oc2c1)CCCC3 (centres undefined),55%
COc1ccccc1N(CC(O)CN(c1ccccc1)S(C)(=O)=O)S(=O)(=O)c1ccccc1 (centres undefined),45%
CCCN1C(=O)c2ccccc2NC1c1ccc(OC)cc1OC (centres undefined),28%
COc1ccc(C(=O)N2CCC3(CC2)CCN(c2ccccc2)CC3)cc1,120%
CCOC(=O)c1cc(CNC(=O)c2c(C)oc3c2CCCC3)c(C)o1,43%
CCN(CC)C(=O)Cc1cc(C(=O)O)c2ccccc2n1,6%
CN(C)C(=O)N1CCC(C(=O)NCC2CCCO2)CC1 (centres undefined),-4%
CCN1C(=O)c2cccc3c(N)ccc1c23,9%
c1ccc(Cc2nnc3sc(-c4ccncc4)nn23)cc1,5%
O=C(Oc1ccc2c(c1)OCO2)c1cccs1,-12%
O=C1C2C3C=CC(C3)C2C(=O)N1CNc1ccc(O)cc1 (centres undefined),-5%
CO/N=C(\C(=O)N[C@@H]1C(=O)N2C(C(=O)O)=C(COC(C)=O)CS[C@@H]12)c1csc(N)n1,1.3µM*!
COc1ccccc1N1CCN(Cc2cccc(OC)c2O)CC1,6%
CCOC(=O)CCc1c(C)nc2cc(-c3ccc(F)cc3)[nH]n2c1=O,-10%
O=C1CCCN1CCCNc1ncnc2c1[nH]c1ccc(Cl)cc12,21%
O=C(CN1CCN(Cc2ccccc2F)C1=O)NCc1cccnc1,8%
O=C(CSc1nc2ccccc2c(=O)n1C1CC1)NCc1ccccc1,13%
Cn1c(CCN2CCCCC2)nc2cc(NS(=O)(=O)c3ccc(Cl)cc3)ccc21,23%
c1ccc(-n2cnc3cc(NCc4ccccn4)ccc32)cc1,26%
COC(=O)CSc1nnc(CNS(=O)(=O)c2ccc(C)cc2)n1C,10%
COc1ccc(-c2nnc(SCC(=O)N3CCCCC3)o2)cc1OC,3%
Cc1ccccc1NC(=O)C1CCCN(S(=O)(=O)c2c(C)noc2C)C1 (centres undefined),20%
O=S(=O)(c1ccc(OCC(O)CNCc2ccco2)c(Cl)c1)N1CCOCC1 (centres undefined),16%
Cc1nnc(SCc2nc3ccccc3s2)n1-c1ccccc1,21%
CC1=NC(C(F)(F)F)(C(F)(F)F)C2=C(CC(C)(C)CC2=O)N1Cc1ccco1,28%
CCn1c(N)c(C(=O)NCC2CCCO2)sc1=S (centres undefined),-1%
COc1ccc(-c2cn3cccnc3n2)cc1NC(=O)c1ccc(Br)o1,131%
CC(C)C(=O)Nc1ccc2c(c1)C(=O)N(CCC(=O)O)C2=O,-3%
Cn1c(Cn2c(=O)sc3ccccc32)nnc1SCC(=O)N1CCCC1,4µM*[single pt active]
CCOC(=O)C1CCN(C(=O)c2ccco2)CC1,-4%
COC(=O)N1[C@H](Cc2ccccc2)C=C[C@]1(C)C(=O)O,37%
CC(=O)N1CCC(C(=O)Nc2nc(-c3ccccc3)ns2)CC1,25%

# New compounds follow
SMILES,AmpC inh no det
CC1CCCC(C)N1CC(O)COc1ccc(Cl)cc1 (centres undefined),-1%
CN(C)S(=O)(=O)c1cccc2nsnc12,-5%
CC(C)(C)NS(=O)(=O)c1ccc(OCC(=O)Nc2ccc3c(c2)OCCO3)cc1,0%
O=C(NCc1ccccc1Cl)C1CCN(S(=O)(=O)N2CCCCCC2)CC1,23%
CCCC(CCC)C(=O)NCCN1CCOCC1,-2%
FC(F)(F)c1nnc2ccc(-n3ccnc3)nn12,21%
COc1cc(C#N)ccc1OCC(=O)c1ccc2c(c1)OCCO2,-4%
CC(NC(=O)c1ccc(N(C)C)cc1)C(c1cccs1)N1CCN(C)CC1 (centres undefined),21%
COC(=O)C(C#N)c1nc2ccccc2nc1N1CCCC1 (centres undefined),18%
CC(=O)c1c(C)[nH]c(C(=O)CSc2nnc(-c3ccco3)n2Cc2ccccc2)c1C,106%
CN1CCN(Cc2nc3c([nH]2)c(=O)[nH]c(=O)n3C)CC1,-12%
O=C(OCCCN1C(=O)c2ccccc2C1=O)c1ccco1,7%
O=C(CCC(=O)N1CCC2(CC1)OCCO2)Nc1nnc(C(F)(F)F)s1,3%
COCCNc1nc(-c2ccc(N(C)C)cc2)nc2ccccc12,28%
NC(=O)NC(=O)COC(=O)c1ccccc1Oc1ccccc1,3%
COc1ccccc1-c1cncnc1NCc1cccnc1,1%
C=CCn1c(=S)[nH]c2ccc(Br)cc2c1=O,26%
C=CCn1cc(C(=O)NCCCOC)c(=O)c2cc(S(=O)(=O)N(CC)CC)ccc21,98%
COc1ccc(Cl)cc1C(=O)NCC(c1ccco1)N1CCCC1 (centres undefined),-5%
O=C(CSc1nnc(-c2ccco2)n1-c1ccccc1)N1CCc2ccccc21,49%
Clc1cc(Br)ccc1OCCOCCN1CCOCC1,52%
CC(=O)Nc1c(C(=O)c2ccccc2)oc2ccccc12,10%
O=C(NCc1ccco1)c1cccc(NC(=O)c2ccccc2)c1,4%
CN(C)CCN1C(=O)c2oc3ccccc3c(=O)c2C1c1ccccc1 (centres undefined),4%
CCCCCn1c(CNC(=O)c2cccs2)nc2ccccc21,7%
CC(C)OCCCNC(=O)c1c(N)n(/N=C/c2ccccn2)c2nc3ccccc3nc12,118%
CCC(C)(NC(=O)CNC(C)=O)C(=O)NC1CCCCC1 (centres undefined),-8%
Cc1ccc(C(C)NC(=O)C2CCCO2)cc1C (centres undefined),4%
CC(=C1C(=O)c2ccccc2C1=O)N1CCN(Cc2ccccc2)CC1,36%
CCN(CC)c1cc2nonc2c2nonc12,-14%
CCCN1CCN(CCCNC(=O)Cn2nc(-c3ccccc3)ccc2=O)CC1,0%
Cc1ccc(Cn2nnc3c(=O)n(CC(=O)NCC4CCCO4)cnc32)cc1 (centres undefined),31%
CCOC(=O)c1ccc2ncc(C(=O)OCC)c(NCCCN3CCOCC3)c2c1,73%
COc1ccc(Cl)cc1S(=O)(=O)N1CCN(CC(=O)C(C)(C)C)CC1,95%
COc1ccc(C(=O)NCC(=O)NC2=NCCS2)cc1,4µM*[single pt active]
COc1cccc(-c2nnc3n2N=C(c2cccc(Br)c2)CS3)c1,-15%
N=c1c(S(=O)(=O)c2ccc(Cl)cc2)cc2c(=O)n3ccccc3nc2n1CCN1CCOCC1,136%
Cc1cc(NC(=O)COC(=O)c2c(C)nn(-c3ccccc3)c2C)no1,4%
CCS(=O)(=O)NCCc1csc(C)n1,-7%
N#CCCn1c(=O)c(-c2ccc(Cl)cc2)nc2cnc(OCc3ccccc3)nc21,5%
COc1cc(N)c(Cl)cc1C(=O)OCCCN1CCCCC1,11%
CC(C)c1c(O)nc(SCc2ccccc2)[nH]c1=O,-3%
CCOC(=O)c1ccccc1NC(=O)C(C)Oc1ccccc1 (centres undefined),24%
Cc1cnc(CNc2ccnc(-c3c(C)noc3C)n2)cn1,10%
C=CCN=C(NC#N)SCC(=O)NC(C)(C)C,-3%
O=C(c1cccc(F)c1)N1CCC2(CCN(Cc3cc(C(F)(F)F)cc(C(F)(F)F)c3)CC2)CC1,-1%
O=c1cc(N2CCCC2)[nH]c(=O)n1-c1ccc(Cl)cc1,-12%
O=C(O)C(Oc1ccc2c3c(c(=O)oc2c1)CCC3)c1ccccc1 (centres undefined),-4%
CCCC1=[N+](CC)CCn2c(C)ccc21,-6%
O=C(Nc1ccncc1)c1cccs1,-7%
Cc1cc(C)cc(N(CC(=O)NC2CCC(C)CC2)S(=O)(=O)c2c(C)noc2C)c1 (centres undefined),29%
Cc1ccc(C(=O)N2CCN(C)CC2)cc1S(=O)(=O)N1CCCCC1,-2%
NC(=O)c1ccccc1-c1nc(-n2ccnc2)c2ccccc2n1,-6%
O=C(O)CCC(=O)N(Cc1cccs1)Cc1cccs1,-2%
COc1ccc(NC(=O)N2CCC(O)(c3cccnc3)CC2)c(OC)c1,4%
CCN1CCN(Cc2ccc(OC)c(OCc3ccccc3)c2)CC1,2%
CCCC[C@@H]1C[C@H]1C(NC(=O)c1ccco1)c1ccc(C(=O)OC)cc1 (some centres undefined),31%
CCN(CCCNC(=O)C1CCN(S(=O)(=O)c2cccc3nonc23)CC1)Cc1ccccc1,12%
O=C(O)CCCc1ccc2ccccc2c1,-3%[5.75 µM]
C=C(Cl)CCl,-3%

# Next part:
SMILES,AmpC inh no det
Cc1ccc2nc(-c3ccccc3Cl)cc(C(=O)Nc3cc(C)on3)c2c1,19%
CC1(C)C(C(=O)NCc2ccco2)C1(C)C,-6%
COc1ccc(CNc2ncncc2-c2ccc3c(c2)OCO3)c(OC)c1,42%
CSc1oc(-c2ccc(F)cc2)nc1S(=O)(=O)c1ccccc1,-5%
COc1ccccc1N1CCN(C(=O)c2cc(-c3cccs3)on2)CC1,84%
Cc1ccc2nc(C)c(C)nc2c1N,9%
O=C1c2ccccc2C(=O)N1CCCc1nc(-c2ccc(Cl)cc2)no1,-1%
N#Cc1cccc(NC(=O)N2CC[C@@]3(CCCN(C(=O)c4csnn4)C3)C2)c1,5%
O=C(CSC1=NCCS1)N1CCN(c2ccccc2)CC1,16%
CCn1c(N)c(C(N)=O)sc1=S,-12%
COc1ccc(CN2CC(C(=O)NCCCN3CCCCCC3)CC2=O)cc1 (centres undefined),6%
O=C(Nc1ccc2c(c1)OCCO2)c1ccc(Cl)c(S(=O)(=O)N2CCOCC2)c1,4%
COC(=O)C1=C(C(=O)c2ccccc2)C(c2cccs2)n2nnnc2N1 (centres undefined),-12%
Cc1ccc2[nH]c(C)c(CN(C)C3CCN(C)CC3)c(=O)c2c1,-16%
Cc1cnc(CNc2ncnc3ccc(-c4ccc(N(C)C)cc4)cc23)cn1,137%

# Quoted at random: two records from the list
SMILES,AmpC inh no det
O=C1c2ccccc2C(=O)N1CCCc1nc(-c2ccc(Cl)cc2)no1,-1%
CCn1c(N)c(C(N)=O)sc1=S,-12%

# 21 entries from above, with tabs.
Compound	AmpC inh no det
COc1ccc(NC(=O)N2CCC(O)(c3cccnc3)CC2)c(OC)c1	4%
CCN1CCN(Cc2ccc(OC)c(OCc3ccccc3)c2)CC1	2%
CCCC[C@@H]1C[C@H]1C(NC(=O)c1ccco1)c1ccc(C(=O)OC)cc1 (some centres undefined)	31%
CCN(CCCNC(=O)C1CCN(S(=O)(=O)c2cccc3nonc23)CC1)Cc1ccccc1	12%
O=C(O)CCCc1ccc2ccccc2c1	-3%[5.75 µM]
C=C(Cl)CCl	-3%
Cc1ccc2nc(-c3ccccc3Cl)cc(C(=O)Nc3cc(C)on3)c2c1	19%
CC1(C)C(C(=O)NCc2ccco2)C1(C)C	-6%
COc1ccc(CNc2ncncc2-c2ccc3c(c2)OCO3)c(OC)c1	42%
CSc1oc(-c2ccc(F)cc2)nc1S(=O)(=O)c1ccccc1	-5%
COc1ccccc1N1CCN(C(=O)c2cc(-c3cccs3)on2)CC1	84%
Cc1ccc2nc(C)c(C)nc2c1N	9%
O=C1c2ccccc2C(=O)N1CCCc1nc(-c2ccc(Cl)cc2)no1	-1%
N#Cc1cccc(NC(=O)N2CC[C@@]3(CCCN(C(=O)c4csnn4)C3)C2)c1	5%
O=C(CSC1=NCCS1)N1CCN(c2ccccc2)CC1	16%
CCn1c(N)c(C(N)=O)sc1=S	-12%
COc1ccc(CN2CC(C(=O)NCCCN3CCCCCC3)CC2=O)cc1 (centres undefined)	6%
O=C(Nc1ccc2c(c1)OCCO2)c1ccc(Cl)c(S(=O)(=O)N2CCOCC2)c1	4%
COC(=O)C1=C(C(=O)c2ccccc2)C(c2cccs2)n2nnnc2N1 (centres undefined)	-12%
Cc1ccc2[nH]c(C)c(CN(C)C3CCN(C)CC3)c(=O)c2c1	-16%
Cc1cnc(CNc2ncnc3ccc(-c4ccc(N(C)C)cc4)cc23)cn1	137%

# High-throughput results from PubChem BioAssay.

# The list is partial; the hit share may differ from the screen's.
